Assay outcomes from PubChem.
HSV augment – increases HSV replication in cells; HSV replication augmentation in cells, fold increase; maximum fold increase; AID 1956; 220,000 compounds, 0.005% hits;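 active means peak rise of 1.5-fold or more in the series; tested in PC3 cells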;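 further: first round at 10 µM; read as green reporter fluorescence; hits show the peak of a series up to 25 µM; 1 = signal of infected wells without compound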
RGS16-Gao – regulators of human RGS16-Galphao interaction; O15492+P09471; bead-based flow cytometry RGS16-Galphao binding, fluorescence; actives lie on both sides; binding response (% of control), % at 10 µM; 220,000 compounds, 0.38% hits; AID 1441;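 active means below 25% or above 175%, edge rows of some plates excepted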;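 further: Galphao activated by GDP with aluminum fluoride before binding; 100% = wells without compound and 0% = beads without RGS; some results beyond the cut were filed as inactive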
Target sequence (O15492 whole entry, looked up): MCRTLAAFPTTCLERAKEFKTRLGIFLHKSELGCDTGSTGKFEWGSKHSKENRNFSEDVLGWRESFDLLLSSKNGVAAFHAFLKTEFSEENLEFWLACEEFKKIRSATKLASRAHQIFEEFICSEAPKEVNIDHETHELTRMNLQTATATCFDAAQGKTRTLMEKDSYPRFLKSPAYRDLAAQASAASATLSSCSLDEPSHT
Target sequence (P09471 whole entry, looked up): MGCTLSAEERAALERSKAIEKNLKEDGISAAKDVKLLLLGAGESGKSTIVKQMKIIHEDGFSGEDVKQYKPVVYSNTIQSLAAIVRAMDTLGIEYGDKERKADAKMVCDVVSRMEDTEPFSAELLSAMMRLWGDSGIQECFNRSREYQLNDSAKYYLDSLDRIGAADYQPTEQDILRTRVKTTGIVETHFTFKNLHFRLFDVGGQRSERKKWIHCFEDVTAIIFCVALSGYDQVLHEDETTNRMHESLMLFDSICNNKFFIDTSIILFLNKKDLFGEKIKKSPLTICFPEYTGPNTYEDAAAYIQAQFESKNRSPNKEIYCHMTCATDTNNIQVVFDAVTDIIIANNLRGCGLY
Insulin prom inh – TRM-6 insulin promoter activity inhibition; TRM-6 cells (human fetal islet line), insulin promoter-eGFP reporter, imaging; reporter expression induced with tamoxifen; inhibition, % at 2 µM; 130,000 compounds, 0.9% hits; AID 1273;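 active means inhibition above the mean plus 3 SD, with well images judged a real hit on visual review, cut at about 60% in these data, passing the limit was not always enough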
PKD1 inh – PKD1 (human) kinase inhibition | 200,000 compounds, 0.056% hits | inhibition, %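 (about 10 µM by stock and volumes)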 | PKD1 kinase fluorescence polarization assay;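 active means inhibition of 50% or more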;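 further: controls were vehicle for no effect and a reference inhibitor for full effect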
GALR2 agonist – GALR2 (human) receptor agonism. O43603. GALR2-expressing cells, agonist activation read-out. activation, %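 (tested at 5 µM)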. 140,000 compounds, 0.48% hits. AID 803;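 active means above mean plus 3 SD of all compounds, about 5% in these data, not always enough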;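 further: 0% = vehicle buffer wells and 100% = reference agonist at full effect; tested in CHO reporter cells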
Target sequence (O43603 whole entry, looked up): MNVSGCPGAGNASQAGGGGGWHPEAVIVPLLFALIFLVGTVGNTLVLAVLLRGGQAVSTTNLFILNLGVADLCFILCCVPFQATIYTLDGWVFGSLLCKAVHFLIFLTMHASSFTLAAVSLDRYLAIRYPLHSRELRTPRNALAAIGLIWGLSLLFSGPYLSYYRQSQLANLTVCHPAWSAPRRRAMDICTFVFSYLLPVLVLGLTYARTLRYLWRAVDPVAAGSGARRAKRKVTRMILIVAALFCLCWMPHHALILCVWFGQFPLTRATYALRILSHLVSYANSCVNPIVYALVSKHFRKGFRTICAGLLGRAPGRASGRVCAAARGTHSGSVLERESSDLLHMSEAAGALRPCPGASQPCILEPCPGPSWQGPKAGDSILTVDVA
Insulin prom inh cell count – second read-out of Insulin prom inh, no call of its own (marks repeat the call); normalized cell count, %; measured here: cell count, toxicity; reference of the scale not given here;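 cells exposed to compound for 48 h; stained nuclei by imaging scaled within each plate; lower means fewer cells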
HSV augment primary fold – recorded beside HSV augment, whose call it bears; fold increase; compound at 10 µM; measured here: primary screen fold increase 10 uM; tested in PC3 cells;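 GFP signal in the first replicate; 1 = infected wells without compound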
Active calls of the source: *; i = inactive; nt = not tested or not shown. This is a random part of the collection; any-hit rate near 1.2%.

Each structure is followed by: HSV augment	HSV augment primary fold	RGS16-Gao	Insulin prom inh	Insulin prom inh cell count	PKD1 inh	GALR2 agonist
CC(C)CN1CCN(Cc2cccn2-c2ccc(Cl)cn2)CC1CCO (stereo not given)
 : i	1.07	103.7	nt	nt	1.8	nt
CN(C)C(=O)c1cc([N+](=O)[O-])ccc1O
 : i	0.95	110.0	nt	nt	-4.0	nt
O=C(COc1ccc(Br)cc1CNC1CCCC1)Nc1ccccc1
 : i	0.86	102.3	nt	nt	-0.7	nt
CS(=O)(=O)Nc1ccccc1C(=O)NCCSCc1ccccc1
 : i	1.01	98.5	nt	nt	-2.3	nt
Cc1ccc(Oc2ncccc2NC(=O)CC(CC(=O)O)c2ccccc2)c2c1CCC2 (stereo not given)
 : i	0.96	97.4	nt	nt	nt	nt
O=C(COC(=O)c1cn(-c2ccccc2)nc1-c1ccccc1)c1ccc([N+](=O)[O-])cc1
 : nt	nt	105.3	nt	nt	1.7	-1.8
Nc1ccc2c(c1)C(=O)N(CCCCCC(=O)O)C2
 : i	0.66	106.4	-350.0	61.0	-8.8	-1.7
C/C(Cl)=C/Cn1c(SCc2ccc(Cl)cc2)nc2c1c(=O)[nH]c(=O)n2C
 : i	1.13	80.2	-43.2	165.7	6.8	1.6
Cc1cc(=O)oc2cc(NC(=O)CCCC(=O)O)ccc12
 : nt	nt	107.7	57.1	117.9	6.1	-0.3
CS(=O)(=O)N1CCN(c2ccccc2NC(=S)NC(=O)c2cccs2)CC1
 : i	0.84	108.3	nt	nt	3.6	nt
CCn1c(C)nc2cc(C(=O)n3cc(C(=O)c4ccccc4O)cn3)ccc21
 : i	0.96	100.4	-233.3	144.8	-3.6	-3.7
Cc1cc2oc(=O)cc(CN3CCN(S(=O)(=O)c4ccc5c(c4)OCCO5)CC3)c2cc1C
 : i	0.96	109.9	-135.5	52.7	-11.4	-0.5
CC(C)(CSc1nncn1/N=C/c1ccco1)NS(=O)(=O)c1ccc(Cl)cc1
 : i	0.913	98.2	nt	nt	-6.2	-2.2
O=C(COc1ccccc1)NC(=S)Nc1ccc(Br)cn1
 : i	1.11	102.9	nt	nt	nt	nt
COc1ccc(NC(=O)Cc2coc3cc(C)ccc23)cc1S(=O)(=O)N1CCOCC1
 : i	1.02	99.9	nt	nt	-5.6	0.2
COCCSc1ccccc1C(=O)Nc1ccc(Cl)cn1
 : i	1.11	101.2	nt	nt	-6.1	-2.1
CCOC(=O)N1CCN(CC(=O)Nc2cc(C)nn2-c2nc3ccccc3s2)CC1
 : i	0.99	101.2	7.1	83.7	-6.4	-2.0
CCN(CC)c1ccc(NC(=O)CSc2nc(C)cc(=O)[nH]2)cc1
 : i	0.91	102.8	nt	nt	-3.9	nt
Cc1cccc(-c2noc(Cc3ccc(Cl)cc3)n2)c1
 : i	0.88	103.5	36.4	99.1	-6.3	-3.2
c1cc(CNC23CC4CC(CC(C4)C2)C3)ccn1
 : i	0.99	111.9	13.3	96.3	9.1	nt
CCOC(=O)c1c(NC(=O)CSc2nnc(CN3CCOCC3)n2C)sc2c1CCCC2
 : i	0.98	98.7	-93.8	101.1	-14.1	0.1
CSc1nc(NCc2ccco2)c2sc3nc(C(C)C)c4c(c3c2n1)CC(C)(C)OC4
 : i	0.65	99.5	nt	nt	-4.8	0.3
N#Cc1ccc(Oc2ccc(-c3cnc4ccccc4n3)cc2)cc1C#N
 : i	0.93	103.8	nt	nt	-2.4	0.7
CCSc1nc(C)c(CCOc2cccc(C)c2)c(=O)[nH]1
 : i	0.9	101.2	56.2	100.8	2.3	nt
CCOC(=O)C1CCCN(c2c(NCCc3ccc(S(N)(=O)=O)cc3)c(=O)c2=O)C1 (stereo not given)
 : i	0.81	102.9	nt	nt	8.4	-1.6
CCOC(=O)CSc1nc2ccccc2c(=O)n1CCN1CCOCC1
 : i	1	97.9	-4.5	121.3	-7.7	-1.6
CC(C)N(CCn1cnc2c([nH]c3ccccc32)c1=O)C(C)C
 : i	1.15	102.7	nt	nt	nt	nt
Cc1cccc(C)c1Nc1nnc(SCC(=O)NC(=O)c2cccn2C)s1
 : i	1.05	96.0	3.3	77.1	3.2	-1.2
O=C(O)CONC(=O)c1cc(OCC(F)(F)F)ccc1OCC(F)(F)F
 : i	1.02	111.3	-23.3	184.3	-1.6	-1.9
O=C(CSc1nc2c(cnn2-c2ccc(F)cc2)c(=O)[nH]1)N1CCCc2ccccc21
 : i	0.72	101.0	7.1	147.2	-3.7	-0.5

Only Insulin prom inh cell count, HSV augment primary fold and PKD1 inh, for 2 of the compounds above:
molecule	Insulin prom inh cell count	HSV augment primary fold	PKD1 inh
O=C(COc1ccccc1)NC(=S)Nc1ccc(Br)cn1	nt	1.11	nt
COc1ccc(NC(=O)Cc2coc3cc(C)ccc23)cc1S(=O)(=O)N1CCOCC1	nt	1.02	-5.6

The results go on.
Each structure is followed by: HSV augment	HSV augment primary fold	RGS16-Gao	Insulin prom inh	Insulin prom inh cell count	PKD1 inh	GALR2 agonist
COC(=O)C1=C(C)N(c2ccc(OC)c(OC)c2)C(=O)C1
 : i	0.87	103.1	15.6	95.2	-1.1	-2.6
CCc1sc2nc(SCC(=O)Nc3cc(C)on3)n(-c3cccc(OC)c3)c(=O)c2c1C
 : i	0.72	102.3	20.0	85.0	-0.1	-1.5
CCNC(=O)OCC12CC3CC(CC(C3)C1)C2
 : i	1.07	96.4	nt	nt	-5.7	-0.1
Fc1ccccc1/C=N/Nc1nc(N2CCCCC2)nc(N2CCCCC2)n1
 : i	1.03	112.1	0.0	72.3	0.1	nt
N#C/C(=N\Nc1cccc(Cl)c1)C(=O)c1ccccc1
 : i	0.93	108.1	nt	nt	-5.7	-4.2
CCc1ccc(NC(=O)NCC2CCN(c3ccc(OC)cc3)C2)cc1 (stereo not given)
 : i	0.95	97.8	nt	nt	nt	nt
Cc1cc(C)cc(C(=O)N2CCN=C2SCc2ccc([N+](=O)[O-])cc2)c1
 : i	1.03	96.2	-26.5	150.3	-1.6	-0.2
CCCc1nc2oc3c(NCc4ccccn4)ncnc3c2c2c1COC(C)(C)C2
 : i	0.96	93.0	nt	nt	-3.5	0.8
COc1cc(CO)cc(Br)c1OCC(=O)O
 : i	1.07	99.0	nt	nt	-4.9	-1.5
Cc1c(C(=O)N(C)C)sc(NC(=O)c2cc([N+](=O)[O-])cc([N+](=O)[O-])c2)c1C#N
 : i	1.09	97.6	31.4	62.9	2.1	-2.4
CC(=O)Nc1ccccc1-c1ccc(C)o1
 : i	0.957	104.3	-16.7	134.0	2.5	-1.0
OC(CNCc1ccc(F)cc1)(c1ccccc1)c1ccc(F)cc1 (stereo not given)
 : i	0.88	100.5	23.3	110.6	-10.2	-3.0
Cc1ccccc1-n1c(SCC(=O)NCc2cccs2)nnc1-c1ccncc1
 : nt	nt	101.7	nt	nt	6.9	-0.6
COc1ccc(-c2nnc(SCC(=O)c3ccc4c(c3)OCCO4)o2)cc1
 : i	1.04	nt	53.3	85.8	-19.1	-1.8
N#CCC(=N)N1CCN(c2ccc(F)cc2)CC1
 : i	1.04	90.9	-27.3	90.0	-2.1	nt

Five entries already listed, arranged by the value under RGS16-Gao, high to low.
SMILES | RGS16-Gao
CC(=O)Nc1ccccc1-c1ccc(C)o1 | 104.3
COC(=O)C1=C(C)N(c2ccc(OC)c(OC)c2)C(=O)C1 | 103.1
CCc1sc2nc(SCC(=O)Nc3cc(C)on3)n(-c3cccc(OC)c3)c(=O)c2c1C | 102.3
OC(CNCc1ccc(F)cc1)(c1ccccc1)c1ccc(F)cc1 (stereo not given) | 100.5
CCCc1nc2oc3c(NCc4ccccn4)ncnc3c2c2c1COC(C)(C)C2 | 93.0

One compound at a time, as listed above:
`CCOC(=O)c1c(NC(=O)CSc2nnc(CN3CCOCC3)n2C)sc2c1CCCC2` across the screens: HSV augment: i; HSV augment primary fold: 0.98; RGS16-Gao: 98.7; Insulin prom inh: -93.8; Insulin prom inh cell count: 101.1; PKD1 inh: -14.1; GALR2 agonist: 0.1
`OC(CNCc1ccc(F)cc1)(c1ccccc1)c1ccc(F)cc1` (stereo not given) across the screens: HSV augment: i; HSV augment primary fold: 0.88; RGS16-Gao: 100.5; Insulin prom inh: 23.3; Insulin prom inh cell count: 110.6; PKD1 inh: -10.2; GALR2 agonist: -3.0

(cont.)
Each structure is followed by: HSV augment	HSV augment primary fold	RGS16-Gao	Insulin prom inh	Insulin prom inh cell count	PKD1 inh	GALR2 agonist
Cc1ccc(/C=N/n2c(C)nc3ccccc3c2=O)o1
 : i	0.95	96.3	nt	nt	-4.7	nt
CCOC(=O)NC(=S)Nc1cccc(NC(=S)NC(=O)OCC)c1
 : i	0.97	99.2	nt	nt	-2.8	nt
COc1ccc(Nc2cc(C)c3c(O)cccc3n2)cc1
 : i	0.9	94.2	nt	nt	nt	nt
Cc1nc(N2CCCCC2)sc1C(=O)c1cccc([N+](=O)[O-])c1
 : i	1.08	92.4	-58.8	117.5	8.8	nt
CC(=O)N1C(C)c2ccccc2C(C)(C)CC12CCCCC2 (stereo not given)
 : i	1.08	137.5	2.9	65.5	-2.8	1.4
CCOc1ccccc1NC(=O)C(=O)/C=C(\O)c1cc(OC)ccc1OC
 : i	0.87	96.4	-6.5	144.1	8.1	-1.2
N#Cc1c(NC(=O)CSc2ncnc3c2cnn3-c2ccccc2Cl)sc2c1CCCC2
 : i	1.02	100.5	nt	nt	5.5	-0.2
O=C(Nc1nc2ccc(Cl)cc2s1)C1CCCO1 (stereo not given)
 : i	1.02	106.7	6.2	66.7	3.6	-1.5
CCCCN(C(=N)N1CCCCC1)c1nc(C)c([N+](=O)[O-])c(=O)[nH]1
 : i	0.97	102.5	-42.9	90.0	3.2	-1.2
Cc1cc(OC(=O)c2ccc(S(=O)(=O)N(C)C)cc2)cc(=O)o1
 : i	1	102.9	57.1	101.8	3.3	-0.4
Cn1nnnc1SCC(=O)Nc1cc(C(C)(C)C)nn1-c1ccccc1
 : i	0.92	99.5	-35.7	117.0	0.7	-1.1
COc1ccc(/C=N/NC(=O)c2cccc([N+](=O)[O-])c2)cc1OS(=O)(=O)c1ccccc1
 : i	0.9	98.7	10.3	94.4	-5.3	-1.9
Cc1c(C#N)c2ccccc2n1CC(=O)N1CCCc2ccccc21
 : i	1.01	98.2	-43.8	220.7	-4.2	-0.2
O=C1c2ccccc2C(=O)N1CC1c2ccccc2CCN1C(=O)C1CCCCC1 (stereo not given)
 : i	0.95	104.0	-16.1	167.1	1.7	-2.3
O=C(O)C1=C[C@H](c2ccc(F)cc2)C[C@H](OCc2ccc(CO)cc2)O1
 : i	0.97	104.1	nt	nt	nt	nt
CCOC(=O)N1CCN(C(=O)C2CCN(Cc3ccc(O)c(OCC)c3)CC2)CC1
 : i	1	103.1	9.5	70.5	-6.7	nt
COc1ccc2c(=O)cc(-c3ccccc3)n(C)c2c1
 : i	0.94	103.3	0.0	100.0	4.7	0.1
COc1ccc(-c2noc(C(=O)NCc3ccc(F)cc3)n2)cc1OC
 : i	1.08	115.2	nt	nt	-9.0	nt
COc1ccc(C(=O)NCC(=O)OCC(=O)N2CCCc3ccccc32)cc1
 : i	0.95	101.3	nt	nt	-11.1	-1.4
Cc1cc(NS(=O)(=O)c2ccc(NC(=S)NC(=O)c3cccc(S(=O)(=O)N(C)C)c3)cc2)no1
 : i	1.12	97.9	nt	nt	-1.0	nt
Cc1c(C(C)C)c(=O)n(-c2ccc(S(=O)(=O)NC(C)C)cc2)n1C
 : i	0.66	177.3	13.0	68.6	0.0	nt
COc1ccc(S(=O)(=O)Nc2ccc(NC(C)=O)cc2)cc1Cl
 : i	0.97	103.8	nt	nt	1.6	nt
CCCCn1c(SCC(=O)Nc2nnc(C(C)C)s2)nc2c1c(=O)n(C)c(=O)n2C
 : i	0.91	90.2	nt	nt	-4.0	3.4
Cn1c(=O)[nH]c(=O)c2c1nc(CN1CCN(c3ccc(F)cc3)CC1)n2CCN1CCOCC1
 : i	0.9	103.5	nt	nt	nt	nt
O=c1c2ccccc2nnn1COc1ccc(F)cc1Cl
 : i	1.03	103.6	nt	nt	-6.1	nt
O=C(NC1CCCC1)c1ncn[nH]1
 : i	0.92	107.9	-14.3	141.3	-3.0	0.3
CCOC(=O)c1cccc(NC(=O)COc2ccc([N+](=O)[O-])cc2)c1
 : i	0.89	137.3	-20.4	77.5	-0.8	-1.1
c1ccc(-c2nn3c(Cn4nnc5ccccc54)nnc3s2)cc1
 : i	0.96	90.9	-140.9	128.8	-4.8	-2.2
